# Source: PubChem BioAssay
# Rango complex inh: prevents formation of the Rango-importin beta complex. Rango CFP/YFP FRET sensor + importin beta, 45 min. AID 540263. 0.031% of 340,000 active. Potency, µM (doses to about 92.2 µM), inactives show at the highest dose inhibition of complex formation; active = rising FRET ratio curve, often small or poorly fitted; inconclusive = mostly compound fluorescence or quenching in the first reads; inactive = flat curves in all reads;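 note: potency is the fitted concentration of half-maximal effect; 0% = DMSO wells and 100% = buffer wells lacking importin beta; nearly all actives have a fitted effect of over 15% in size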
# Target sequence (Q14974 whole entry, looked up): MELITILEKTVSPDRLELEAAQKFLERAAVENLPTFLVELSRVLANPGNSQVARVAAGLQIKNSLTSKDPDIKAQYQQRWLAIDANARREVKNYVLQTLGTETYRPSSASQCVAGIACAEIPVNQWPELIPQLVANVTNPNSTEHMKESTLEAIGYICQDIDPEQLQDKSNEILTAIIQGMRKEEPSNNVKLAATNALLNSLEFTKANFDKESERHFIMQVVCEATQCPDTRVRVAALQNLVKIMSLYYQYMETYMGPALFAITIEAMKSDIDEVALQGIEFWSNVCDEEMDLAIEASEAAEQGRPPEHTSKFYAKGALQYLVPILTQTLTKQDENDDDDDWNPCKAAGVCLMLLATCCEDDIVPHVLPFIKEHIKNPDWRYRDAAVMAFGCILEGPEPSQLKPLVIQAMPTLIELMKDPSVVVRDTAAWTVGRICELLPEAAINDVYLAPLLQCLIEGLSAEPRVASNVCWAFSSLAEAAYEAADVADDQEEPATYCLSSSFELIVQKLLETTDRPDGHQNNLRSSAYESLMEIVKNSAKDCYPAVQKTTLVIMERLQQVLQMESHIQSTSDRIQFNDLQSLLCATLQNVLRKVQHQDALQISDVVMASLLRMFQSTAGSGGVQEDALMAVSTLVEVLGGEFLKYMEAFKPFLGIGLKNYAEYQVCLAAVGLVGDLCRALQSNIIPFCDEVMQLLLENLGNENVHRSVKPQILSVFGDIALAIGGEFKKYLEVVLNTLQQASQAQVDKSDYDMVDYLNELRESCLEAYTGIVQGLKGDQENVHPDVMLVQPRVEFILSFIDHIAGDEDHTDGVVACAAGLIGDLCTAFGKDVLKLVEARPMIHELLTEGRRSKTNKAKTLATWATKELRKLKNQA
#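 FRET biosensor (snurportin 1 IBB flanked by EYFP and cerulean), 50 nM, with compound 5 min, then 0.125 microM importin beta in PBS, 1 mM DTT, 0.02% Tween-20, 0.1% BSA. CFP/YFP ratio read after 45 min at room temperature; pre-read flags interference.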
# miR-21 reporter: raises the signal of a miR-21 reporter. HeLa miR-21 FLuc reporter, luciferase, 48 h. Potency, µM (top dose mostly 38.3 µM), for the others: top-dose reporter change, positive = more light. 340,000 tested, under 10 active. AID 2288; active = well fitted rising curve with a large enough effect; inconclusive = small, poorly fitted or top-dose-only effect; inactive = no such curve, though single readings can be large or run the other way;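 note: % of control where 0% means no effect; miR-21 action dims this reporter so a rising signal means less miR-21 action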
#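 HeLa cells stably expressing CMV-driven firefly luciferase with a downstream miR-21 binding sequence, endogenously expressing miR-21, were treated with titrations (up to about 40uM final) for 48 hours at 37 degree Celsius. Luciferase luminescence was read after lysis.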
# Rango release inh: inhibitors of RanGTP-induced Rango-importin beta complex dissociation; O95149+P62826; Biochemical FRET Rango-importin beta, RanGTP-induced dissociation; Potency, µM (highest dose often 46.1 µM), inactives show at the highest dose activity change, negative = inhibition; 0.071% of 340,000 active; AID 540253; active means falling FRET ratio curve, often poorly fitted, with flat reads before Ran was added; inconclusive means other falling curves, or compound fluorescence or quenching; inactive means flat or rising ratio curve;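 note: potency is the fitted concentration of half-maximal effect; % of control where 0% means no effect; nearly all actives have a fitted effect of over 45% in size; -100% = wells without RanGTP and RCC1; the record marks most hits as doubtful in a second field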
#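 Compounds sat 5 min at room temperature with 0.1 uM Rango biosensor plus 0.25 uM importin beta, then FRET pre-read. RanGTP-RCC1 (0.6 uM Ran, 2mM GTP, 0.2 uM RCC1) added for 45 min, and the CFP/YFP post-read measured blocked complex dissociation.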
# GLA inh pH 4.5: alpha-galactosidase A (human) inhibition, pH 4.5. 230,000 tested, under 10 active. activity change, negative = inhibition, % at 105 µM. P06280. purified enzyme, 4-MU-alpha-Gal fluorescence, pH 4.5; inconclusive = small, poorly fitted or top-dose-only inhibition, or a rising curve; inactive = flat fitted curve, though single readings scatter; no compound was filed as active;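 note: 0% = full activity with enzyme and -100% = basal without enzyme; dose as in the result columns while the protocol names 77 µM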
# * hit, by the source's call; ? = inconclusive; . = no result given. A portion of the library. The share of hits here may be higher or lower than overall.
# A first look:
Rango complex inh,molecule,miR-21 reporter,Rango release inh,GLA inh pH 4.5
4.4%,CC(C)N1C(=O)C2C(C(=O)NCc3ccccc3)C3C=CC2(O3)C1C(=O)NC(C)(C)C (stereo not drawn),-2%,10%,1
-3.3%,O=C(N/N=C/c1cccn1-c1ccc([N+](=O)[O-])cc1)C(O)c1ccccc1 (stereo not drawn),-1%,-9%,4
?,CN(C)c1nc2n(c(=O)n1)CCO2,-3%,13%,5

# Results, from the first entry:
Rango complex inh,molecule,miR-21 reporter,Rango release inh,GLA inh pH 4.5
4.4%,CC(C)N1C(=O)C2C(C(=O)NCc3ccccc3)C3C=CC2(O3)C1C(=O)NC(C)(C)C (stereo not drawn),-2%,10%,1
-3.3%,O=C(N/N=C/c1cccn1-c1ccc([N+](=O)[O-])cc1)C(O)c1ccccc1 (stereo not drawn),-1%,-9%,4
?,CN(C)c1nc2n(c(=O)n1)CCO2,-3%,13%,5
-5.5%,Fc1ccccc1NC(=S)Nc1cccc2cnccc12,-3%,-4%,6
0.0%,Cc1cn(CC(=O)N(C)Cc2ccco2)c(=O)[nH]c1=O,.,10%,.
?,FC(F)(F)c1ccccc1NC(=S)N/N=C1\CC2CC=CC12 (stereo not drawn),10%,3%,-5
0.7%,CCc1ccc(C(=O)C(C)OC(=O)c2nc3nc(C)cc(C)n3n2)cc1 (stereo not drawn),.,-1%,.
2.3%,COc1cc(/C=N/NC(=O)c2ccc(NC(=O)C3CC3)cc2)ccc1OC(C)=O,1%,7%,.
-3.2%,COc1ccc(Cn2nnnc2C(c2ccccc2)N2CCN(C3CCCC3)CC2)cc1 (stereo not drawn),-2%,-9%,-8
5.0%,O=C(Nc1ccc(S(=O)(=O)Nc2nccs2)cc1)c1nn(-c2ccccc2)ccc1=O,-11%,-22%,.
-0.1%,CC1CC(C)CN(c2ncc3c(n2)CC(c2ccccc2Cl)CC3=O)C1 (stereo not drawn),-1%,11%,-2
-1.2%,O=C(COC(=O)CCC(=O)c1ccc(F)cc1)Nc1nnc(-c2ccccc2)o1,.,-9%,.
?,CC(N=Cc1cccc(O)c1O)c1ccccc1 (stereo not drawn),21%,-15%,-14
?,COCCn1c(=O)[nH]c(=O)c2c1nc(-c1ccc(-c3ccc(Cl)cc3[N+](=O)[O-])o1)n2Cc1ccccc1,12%,-19%,-2
?,CCCN(CCC)c1nc2ccccc2nc1C(C#N)C(=O)OCCOC (stereo not drawn),-14%,?,8
?,O=c1cc(O)nc(-c2ccccc2)s1,-5%,-27%,6
-2.1%,CCCCC(CCC(=O)Nc1nccs1)C(=O)O (stereo not drawn),-6%,-4%,-10
-3.1%,COc1ccc(CCC(=O)NNC(=O)Cn2nc(C)cc2C)cc1,1%,8%,.
0.0%,O=C(COC(=O)c1ncc(Cl)c(Cl)c1Cl)NNC(=O)c1ccccc1,.,4%,.
-0.3%,CCCCCCCCCOC(=O)C[n+]1csc(CCO)c1C,-2%,-7%,-21
3.1%,CCOc1ncccc1C(=O)OCC(=O)Nc1ccc(S(=O)(=O)N2CCCC2)cc1,.,2%,.
1.8%,Cc1cccc(NC(=O)Cc2nnc(NC(=O)Nc3ccccc3F)s2)c1,3%,-7%,9
5.1%,C=CCN(CC(=O)NCC1CCCO1)C(=O)CCC(=O)Nc1cc(C)on1 (stereo not drawn),-5%,6%,-4
0.7%,COc1ccc(CCNC(=O)CCS(=O)(=O)c2ccc(C)cc2)cc1OC,-2%,7%,4
?,O=[N+]([O-])c1ccc(NN=Cc2ccc(O)cc2)nc1,.,?,.
-0.3%,CCOC(=O)N1CCC(NC(=O)c2ccc3c(c2)N(C)C(=O)/C(=C/c2cccc(OC)c2)S3)CC1,0%,-9%,.
2.2%,COc1cccc(CSc2nnnn2-c2ccc(O)cc2)c1,3%,-2%,0
0.7%,O=C(O)/C=C/c1cn(Cc2ccccc2)nc1-c1cccnc1,9%,-15%,-3
-0.5%,CCOc1ccc(/C=N/NC(=O)c2cc(-c3ccco3)nc3ccccc23)cc1,11%,-26%,-3
2.6%,NS(=O)(=O)c1ccc(CNC(=O)c2sccc2-c2ccccc2)cc1,-2%,6%,.
2.5%,CC1CCN(c2cc(N3CCOCC3)c([N+](=O)[O-])cc2F)CC1,-2%,20%,-9
0.3%,CCn1ccnc1[C@@H]1C[C@H]2CN(Cc3ccccc3OC)C(=O)[C@]23CCCN13,-1%,0%,8
-0.6%,CC(CCc1ccccc1)NC(=O)CN1C(=O)NC2(CCCCC2)C1=O (stereo not drawn),4%,-2%,-6
-0.7%,COc1ccc(-c2csc(NC(=S)NC(=O)c3ccc(S(=O)(=O)N(C)C)cc3)n2)cc1OC,-5%,-5%,.
-0.5%,O=C(COc1ccccc1[N+](=O)[O-])Nc1ccccc1N1CCCC1,-21%,-14%,3
3.2%,Cc1ccc2c(c1)nnn2C1CCN(CC(=O)NCCc2nc3ccccc3[nH]2)CC1,-12%,-6%,3
-0.5%,CN(Cc1cccs1)C(=O)Cc1csc(-c2ccccc2)n1,-55%,14%,5
0.7%,O=C(O)C1CC(=O)N(CCc2ccccc2)C1 (stereo not drawn),0%,0%,8
?,Cc1ccc(C2c3[nH]c4ccccc4c3C[C@H]3C(=O)N(c4ccccc4C(=O)NCCCN4CCOCC4)C(=O)N23)cc1 (stereo partly drawn),11%,-15%,.
0.7%,COc1ccc(-c2noc(CCC(=O)NCCCN3CCC(Cc4ccccc4)CC3)n2)cc1,10%,-14%,-3
-0.1%,COc1ccc(CN2CCC(n3nccc3NC(=O)C3CC3)CC2)cc1O,0%,-2%,.
?,COc1ccc(N(CC(=O)NCc2ccc(F)cc2)C(=O)CCC(=O)Nc2ccccn2)cc1,3%,11%,.
7.2%,COC(=O)c1ccccc1NC(=O)c1cc(C2CC2)on1,-15%,-12%,-1
-2.8%,C=CCN(c1ccc(C(=O)Nc2cccc([N+](=O)[O-])c2)cc1)S(C)(=O)=O,15%,-2%,-7
-1.8%,Cc1ccc(N(C(=O)c2csnn2)C(C(=O)NCc2ccccc2)c2cccnc2)cc1 (stereo not drawn),1%,-8%,.
6.6%,COc1ccc(-c2[nH]ncc2CN(C)CCN2CCOCC2)cc1F,-5%,-18%,5
-2.5%,CC[C@]12c3[nH]c4cc(CCC(=O)N(C)C)ccc4c3CCN1C(=O)[C@@H](CC(=O)NCc1cccc(C(F)(F)F)c1)C[C@@H]2C(=O)N1CCN(C(=O)c2ccco2)CC1,.,-5%,.
-0.6%,Cc1ccc(NC(=O)CSc2nnc(COc3ccc(C#N)cc3)n2-c2ccccc2)cc1C,22%,20%,-7
2.7%,CCOc1ccc2ccccc2c1/C=N/NC(=O)CNC(=O)c1ccccc1F,-2%,-9%,.
2.8%,COc1cc(/C=N/Nc2nc(N3CCCC3)nc(N3CCCC3)n2)ccc1O,1%,2%,10
2.0%,O=C(CSc1ccc([N+](=O)[O-])cc1)c1ccccc1,.,-11%,.
4.5%,CC(C)(O)c1ccc2c(c1)CCC1C(C)(C(=O)O)CCCC21C (stereo not drawn),0%,-14%,2
-1.9%,Cc1ccc(C(C)C)c(OCCNC(=S)Nc2cccc3ccccc23)c1,10%,9%,-13
4.4%,CC(C)Cn1c(N)c(C(=O)CSc2ncn[nH]2)c(=O)n(C)c1=O,.,7%,.
-1.2%,Cc1ccc(CN2CCN(Cc3ccc(OC(C)C)cc3)CC2CCO)o1 (stereo not drawn),0%,-3%,8
-0.4%,CCOC(=O)CC1=NC(=O)CS1,-4%,-5%,7
?,CC(C)N1CCC(N2CCN(Cc3cc(F)ccc3-n3cccn3)CC2CCO)CC1 (stereo not drawn),6%,12%,-2
1.2%,CC(=O)c1cc(CN2CCN(C3CCN(C(C)C)CC3)C(CCO)C2)cs1 (stereo not drawn),-3%,-17%,5
-0.7%,C/C(=N\NC(=O)c1cc(-c2ccccn2)nc2ccccc12)c1cccc([N+](=O)[O-])c1,0%,26%,5
0.1%,Cc1cc(=O)n2nc(N3CCCC(C(=O)N4CCOCC4)C3)sc2n1 (stereo not drawn),-4%,14%,4

# The list continues:
Rango complex inh,molecule,miR-21 reporter,Rango release inh,GLA inh pH 4.5
2.9%,COC1CCN(Cc2c(C(=O)N3CCc4ccccc4C3)nc3ccc(Cl)cn23)CC1,-9%,-2%,.
-2.3%,COc1ccc(CNC(=O)c2ccc(NC(=O)C3CCCO3)cc2)cc1 (stereo not drawn),-18%,3%,-1
0.1%,C#CCOCCOCCOCCNc1nc(N2CCOCC2)nc(N2CCN(C(=O)[C@H]([C@@H](C)O)n3cc(CCCCN)nn3)CC2)n1,-9%,2%,6
1.2%,CCCc1cnc(N2CCN(S(C)(=O)=O)CC2)nc1,-37%,4%,-11
0.0%,O=C(Nc1cccc(Cl)c1N1CCOCC1)c1cccnc1,-8%,-3%,.
-2.7%,OC1CCCN(Cc2cccc3ccccc23)C1 (stereo not drawn),-7%,0%,-2
?,O=C1Nc2ccc(S(=O)(=O)NCCCO)c3cccc1c23,-13%,?,.
?,CC(=O)Nc1c2c3c(cccc3n(C)c1=O)C(=O)c1ccccc1-2,2%,?,-8
-1.7%,COCCCNc1nc2c(c(=O)n(C)c(=O)n2C)n1Cc1cccc(OC)c1,-1%,-6%,-6
-2.0%,COC(=O)c1c(NC(=O)/C=C/C(=O)O)sc(C)c1-c1ccc(C)cc1,12%,4%,-16
0.1%,Cc1ccc(N2CC(C(=O)Nc3nc4ccc(S(C)(=O)=O)cc4s3)CC2=O)cc1 (stereo not drawn),5%,-9%,.
-2.5%,Cc1cccc2c1-c1sc(C(=O)NCCCN3CCCC(C)C3)cc1CO2 (stereo not drawn),?,?,.
-3.1%,CCCc1ccc(Oc2cc(Cl)nc(N)n2)cc1,-35%,-14%,0
-1.0%,CCOC(=O)C1(C)/C(=N/Nc2ccccc2OC)C(=O)C(=O)N1c1ccccc1 (stereo not drawn),-2%,-9%,7
8.8%,Cc1cccc(-c2noc(CCC(=O)NCc3ccco3)n2)c1,-14%,1%,-3
-2.4%,Cc1cc(C)n(CCC(=O)N2CCN(S(=O)(=O)c3ccccc3)CC2)n1,-1%,-2%,.
-4.0%,Cc1ccc2nc(NCc3ccccc3)c(C=NCc3cccnc3)c(=O)n2c1,-33%,-5%,-2
-0.6%,CC(c1ccccc1)n1cc(C(=O)NCc2ccccn2)nn1 (stereo not drawn),-4%,13%,-3
-0.3%,COc1ccc(C=CC(=O)c2ccc(OC)c(OC)c2O)cc1OC,.,-2%,.
-0.8%,CC(CN1CCCCC1)OC(=O)c1ccc2c(c1)OCO2 (stereo not drawn),-15%,8%,3
0.2%,CCOC(=O)c1ccc(NC(=S)N2CCN(C)CC2)cc1,-13%,-5%,.
-0.4%,COc1ccc(CCNCC(=O)Nc2ccc(C)c(S(=O)(=O)N(C)C)c2)cc1OC,1%,9%,4
0.0%,COc1ccc(-c2ccc(-c3cc(=O)oc4cc(OC)c(OC)c(OC)c34)cc2)cc1F,.,0%,-12
1.7%,O=C(COC(=O)c1cccnc1Cl)c1ccc2c(c1)OCCO2,-14%,28%,2
-4.6%,O=C(COC(=O)c1cccc(F)c1)Nc1cccnc1Cl,2%,8%,6
?,CCOc1ccccc1NC(=O)c1ccc2[nH]c(C)c(C)c2c1,-55%,?,.
-0.5%,COc1ccc(C(=O)NCC(=O)OCc2nc(N)nc(Nc3ccccc3C)n2)cc1,.,-6%,.
1.0%,CCOC(=O)C1(CC2CC2)CCN(Cc2cn[nH]c2-c2cccc(F)c2)CC1,1%,0%,-8
2.0%,O=C(COC(=O)c1cccnc1Cl)c1ccccc1,-32%,0%,9

# Entries of single compounds from above:
# O=C(Nc1cccc(Cl)c1N1CCOCC1)c1cccnc1 across the screens: Rango complex inh = 0.0%; miR-21 reporter = -8%; Rango release inh = -3%; GLA inh pH 4.5 = .
# COc1ccc(-c2ccc(-c3cc(=O)oc4cc(OC)c(OC)c(OC)c34)cc2)cc1F across the screens: Rango complex inh = 0.0%; miR-21 reporter = .; Rango release inh = 0%; GLA inh pH 4.5 = -12
# COC1CCN(Cc2c(C(=O)N3CCc4ccccc4C3)nc3ccc(Cl)cn23)CC1 across the screens: Rango complex inh = 2.9%; miR-21 reporter = -9%; Rango release inh = -2%; GLA inh pH 4.5 = .
